High-throughput results from PubChem BioAssay.
NPYLR7 agonist = agonists of mosquito NPYLR7 receptor, primary screen, cell-based, Aedes aegypti, calcium fluorescence, mosquito biting behavior; activation, % at 10 µM; Aedes aegypti neuropeptide Y-like receptor 7 (NPYLR7); actives 0.15% (n = 270,000); AID 1259423, 2018; HEK293T NPYLR7/Galpha15, GCaMP6s calcium fluorescence; in the data active = activation above about 40%;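 also: 0% = vehicle and 100% = reference agonist at the receptor; some compounds past the cut are filed as inactive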
NPYLR7 agonist max-min = recorded beside NPYLR7 agonist, whose call it bears; activation, %; measured here: Max-Min RFU normalised activation; some inactives read as strong as hits;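 span of the calcium signal over five minutes; 0% = vehicle and 100% = native peptide agonist; compound fluorescence can raise it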
Active calls of the source: *; & = joins results of further samples. The list is partial; count on the stated rates, not on these rows.

Start of the listing, in advance:
Below each compound – NPYLR7 agonist | NPYLR7 agonist max-min
CC(C)c1ccc(CC(=O)N2CCC2(C)C(=O)NCC(F)(F)F)cc1 (stereo not given)
→ 1 | 1
Cn1c(=O)n(CC=Cc2ccccc2)c(=O)c2c1nc1n2CCN1c1ccccc1
→ -1 | -3
Cc1ccc(-n2ncc3c(C)nn(CC#N)c(=O)c32)c(C)c1
→ 7 | 3
COc1ccc(-c2csc(-n3[nH]c(-c4ccccc4)c(N=Nc4cccc(C(=O)O)c4)c3=O)n2)cc1
→ 1 | 11
CCCc1[nH]n(C)c(=O)c1C1=C(N2CCOCC2)C(=O)N(c2ccc(OC)cc2OC)C1=O
→ -5 | 1
CCOC(=O)c1nn(CCCc2ccccc2)c2c1CN(C(=O)c1noc3c1CCCC3)CC2
→ 5 | -7
CCc1nc2c(OC)cccn2c1N(C)C(=O)c1ccccc1F
→ -13 | -3

All compounds of this part (from the top)
Below each compound – NPYLR7 agonist | NPYLR7 agonist max-min
CC(C)c1ccc(CC(=O)N2CCC2(C)C(=O)NCC(F)(F)F)cc1 (stereo not given)
→ 1 | 1
Cn1c(=O)n(CC=Cc2ccccc2)c(=O)c2c1nc1n2CCN1c1ccccc1
→ -1 | -3
Cc1ccc(-n2ncc3c(C)nn(CC#N)c(=O)c32)c(C)c1
→ 7 | 3
COc1ccc(-c2csc(-n3[nH]c(-c4ccccc4)c(N=Nc4cccc(C(=O)O)c4)c3=O)n2)cc1
→ 1 | 11
CCCc1[nH]n(C)c(=O)c1C1=C(N2CCOCC2)C(=O)N(c2ccc(OC)cc2OC)C1=O
→ -5 | 1
CCOC(=O)c1nn(CCCc2ccccc2)c2c1CN(C(=O)c1noc3c1CCCC3)CC2
→ 5 | -7
CCc1nc2c(OC)cccn2c1N(C)C(=O)c1ccccc1F
→ -13 | -3
CCC(C)NP1(=O)C=C(c2ccccc2)SC(c2ccccc2)=C1 (stereo not given)
→ -21 | -27
Cc1c(Br)cccc1NC(=O)C1(C)CCN1Cc1ccc(OC(C)C)cc1 (stereo not given)
→ 6 | 5
Cc1nc(CN2C(=O)C3(CCC3)ON=C2c2cccc(Cl)c2)cs1
→ 17 | 11
O=C1N=C2N(CCN3CCCCC3)c3ccccc3N2/C1=C/c1cc([N+](=O)[O-])ccc1Cl
→ 7 | 5
O=C(CN1CCN(S(=O)(=O)c2ccc(Br)s2)CC1)NCc1ccccc1
→ -7 | -8
O=c1c2cnc(N3CCCC3)nc2ccn1-c1cccc(Cl)c1
→ 2 | 0
O=C(CN(CCN1CCCC1)C(=O)Nc1ccc(Br)cc1)N(Cc1ccc(F)cc1)Cc1cccs1
→ -6 | 1
CC=CC=CC(=O)OCc1nc2c(c(=O)[nH]c(=O)n2CCCC)n1CC
→ 11 | 7
O=C1CN(C(=O)C2CCCC2)CC(O)CN1Cc1ccc2c(c1)OCO2 (stereo not given)
→ 27 | 30
CCOc1ccc(-c2n[nH]c(=S)n2CC(=O)NC(C)c2ccco2)cc1 (stereo not given)
→ 6 | 1
CCCCCOc1ccc(C(=O)NCCCO)cc1OCCCCC
→ 4 | 3
O=C(O)c1coc(CN(CCc2c[nH]c3ccccc23)Cc2cccs2)n1
→ 8 | 11
CCOC(=O)C(O)(CC(=O)NNc1c(F)c(F)c(F)c(F)c1F)C(F)(F)F (stereo not given)
→ -2 | -4
CN1CCN(C(=O)C2(C)CCN2C2Cc3ccccc3C2)CC1 (stereo not given)
→ 7 | 1
COc1ccc(CCNC(=O)c2cnc(C)cn2)cc1OC
→ -4 | -7
CN(C)S(=O)(=O)c1ccc(C(=O)NCCSc2c(-c3ccccc3)[nH]c3ccccc23)cc1
→ 1 | 22
C=CCNc1nccnc1-c1ccc(CO)cc1
→ -9 | -14
C=C(C)Cn1c(SCC(=O)N/N=C\c2ccncc2)nnc1-c1ccc(Br)cc1
→ -7 | -13
Cc1ccc(-c2ccc(CCC(=O)NC3CC3)n2-c2ccc(CC#N)cc2)c(C)c1
→ 7 | -3
Cc1cc(CNC(=O)C2(c3ccc(Cl)cc3)CCCC2)on1
→ 4 | -2
CN1CCN(C(=O)CCC2CCCN(Cc3ccc(OC4CCCC4)cc3)C2)CC1 (stereo not given)
→ 8 | 3
Cc1nn(-c2ccccc2)c(NC(=O)C(C)C)c(-c2ccccc2)c1=O
→ 6 | 4
O=C1NCCCCC1Sc1ncc(-c2ccc(F)cc2)o1 (stereo not given)
→ -1 | -4
CN1C(=O)C(C)(C)ON=C1c1ccc(F)cc1
→ 8 | 4
CC(=O)Nc1c(O)nc(SCC(=O)NC(C)c2ccccc2)n(-c2ccccc2)c1=O (stereo not given)
→ -12 | -20
CC1(C(=O)N2CCCCC2)CCN1C(=O)C/C=C/c1ccccc1 (stereo not given)
→ 20 | 24
COc1ccc(-c2csc(-n3[nH]c(C)c(N=Nc4ccc(C)cc4)c3=O)n2)cc1
→ 4 | -2
CC(C)C(=O)Nc1ccc(I)cc1C(F)(F)F
→ 6 | 13
COCCN(CC(=O)N(CCc1ccc(OC)c(OC)c1)Cc1ccc(C)o1)C(=O)c1ccccc1F
→ 17 | 8
CCCOc1ccnc2c1c(=O)n(CCC)c(=O)n2C
→ -2 | -5
Cn1nc(C(=O)NCc2ccc(-c3ccc(Cl)cc3)o2)ccc1=O
→ 2 | 3
Cc1cc(NS(=O)(=O)c2ccc(NC(=O)c3ccncc3)cc2)nc(C)n1
→ -2 | -2
CCOc1ccc(-c2cc(C(=O)NCCc3cccc(C(F)(F)F)c3)c3ccccc3n2)cc1
→ -3 | 0
CCC(Nc1nc(C)nc2c1cnn2C)c1ncnn1CC (stereo not given)
→ 2 | 22
O=C(NCc1ccc(F)cc1)c1ccc(Nc2c(Oc3ccccc3)cnn(-c3ccccc3Cl)c2=O)cc1
→ 14 | 16
CCN(Cc1ccc(Cl)s1)C(=O)Nc1ccc(NC(=O)COC)cc1
→ 11 | 4
Cn1c(=O)n(C)c2cc(CNc3nccc(CCC(F)(F)F)n3)ccc21
→ 3 | -3
Cc1ccc2cc(C(=O)Nc3ccc(N(C)C)cc3C)[nH]c2c1
→ 6 | 4
O=c1cc(Cn2ncc(Cl)c(Cl)c2=O)c2cc3c(cc2o1)CCC3
→ 7 | 9
O=c1/c(=C/c2ccc(N3CCOCC3)cc2)sc2nc3cc(Br)cnc3n12
→ -10 | -17
Cn1c(=O)[nH]c(=O)c2c1nc(CN1CCOCC1)n2CCN1CCOCC1
→ -2 | -4
Cc1ccc(-c2nc3ccccc3c(=O)n2CCc2ccc(F)cc2)c(C)c1
→ 23 | 13
CCOCCOc1nc(-c2cccc(C(F)(F)F)c2)n(-c2ccc(NC(=O)CCCCl)cc2)n1
→ -10 | -15
CNC(=O)c1c(N)sc2c1CCCC2
→ 5 | 2
O=C(CCCc1ccccc1)NCCOc1ccc(-c2ccccc2)nn1
→ 6 | 3
Cc1cn2c3c(=O)n(CC(=O)OCc4ccccc4)c(=O)n(C)c3nc2n1C1CCCCC1
→ 7 | 5
O=C(NCCc1ccccc1)c1ccccc1NS(=O)(=O)c1cccc(Cl)c1
→ 3 | 3
C=CCN1C(=O)NC(c2ccc(Cl)cc2)C2=C1CN(C(Cc1ccccc1)C(=O)Nc1ccc(C)cc1)C2=O (stereo not given)
→ -1 | 5
CC(C)CCC1CCCCN1S(=O)(=O)Cc1ccon1 (stereo not given)
→ -1 | -3
CCOC(=O)CNC(=O)N1CCC(CCC(=O)Nc2ccccc2)CC1
→ 6 | 5
O=C(Nc1ccccc1F)N1CCN(c2ncccn2)CC1
→ -2 | -4
CCc1nn(CCCN2C(=O)NC(C)(C)C2=O)c(=O)c(C#N)c1CC
→ 3 | 2
Cc1cccc2nc(-c3ccc(Cl)cc3)c(NC(C)(C)C)n12
→ -4&21 | -2&23

The listing continues.
Below each compound – NPYLR7 agonist | NPYLR7 agonist max-min
CC(=NCC(c1ccco1)N1CCCCC1)C1=C(O)CC2(CCCCC2)CC1=O (stereo not given)
→ 1 | 8
CNS(=O)(=O)c1ccc(NS(=O)(=O)c2ccc(Cl)c(C(F)(F)F)c2)cc1
→ 1 | 44
Cc1ccc2c(c1)SC1=NC(c3ccccc3)(C(F)(F)F)NC(=O)N12 (stereo not given)
→ 5 | 5
COC(=O)c1cccc(NS(=O)(=O)c2cc(OC)ccc2OC)c1
→ -2 | -4
Cc1ccc(C2(C(F)(F)F)NC(=O)c3ccc(OC(C)C)cc3O2)cc1 (stereo not given)
→ 4 | 2
CC(C)N1C[C@@H](COCc2cccc(C(=O)O)c2)[C@H](c2ccccc2)S1(=O)=O
→ 2 | 5
CC1(C)CC(N=C2C([N+](=O)[O-])=CC=C3C2=NC2(CCCCC2)N3O)CC(C)(C)N1
→ -8 | -12
c1ccc2sc(SCc3cn4cccnc4n3)nc2c1
→ 2 | 3
Cc1ccc(NCC(O)Cn2c3ccccc3c3ccccc32)cc1 (stereo not given)
→ 0 | 1
Cc1ccc(C(=O)N2CCOC(c3ccccc3)C2)c(Cl)n1 (stereo not given)
→ 16 | 27
CCC(=O)Nc1ccccc1C(=O)N1CCN(C)CC1
→ -27 | -28
Cc1c(Br)c([N+](=O)[O-])nn1CC(=O)Nc1ccc(OC(F)(F)F)cc1
→ -9 | -10
c1ccc(-c2ccc3occc3c2)c(CN2CCOCC2)c1
→ -4 | -4
Cn1c(=O)c2c(nc3n2CC(C(C)(C)C)=NN3CCCc2ccccc2)n(C)c1=O
→ 8 | 12
C#Cc1cccc(NC(=O)CNC(=O)C2CCCCN2C(=O)c2ccco2)c1 (stereo not given)
→ -1 | -1
Cc1ccc(Cn2ncc3c2NC(=O)CC32C(=O)N(C)c3c(Cl)cccc32)cc1 (stereo not given)
→ 0 | -3
CC1CN(CCCNC(=O)C2CCN(S(=O)(=O)c3ccc4c(c3)CCC4)CC2)CC(C)O1 (stereo not given)
→ 14 | 10
CCc1c(C)nc(-n2nc(C)cc2NC(=O)c2cc(C(F)(F)F)cc(C(F)(F)F)c2)[nH]c1=O
→ 14 | 8
N#CCC1(COC(=O)C2CCOc3ccccc32)CC1 (stereo not given)
→ 5 | 0
CCCCCNC(=O)c1cc(-c2ccccc2F)n2nc(C(C)(C)C)cc2n1
→ 6 | 10
CCOC(=O)c1c(-c2ccc(C)o2)csc1NC(=O)CN1C(=O)c2ccccc2C1=O
→ -5 | -9
Cc1cc(C2=NNC(=NCc3ccco3)SC2)c(C)n1Cc1ccco1
→ 10 | 10
O=C(COC(=O)C=Cc1ccc(Br)o1)COC(=O)C=Cc1ccc(Br)o1
→ 22 | 16
O=C(C1CC1)N1C[C@H]2CNC[C@@]2(C(=O)NCCOc2ccccc2)C1
→ 0 | -1
COc1ccc(/C=C/C(=O)/C=C/c2ccc(OC)cc2OC)c(OC)c1
→ 2 | -1
Cc1cc2cc(C(=O)N3CCCC(CNC(=O)c4ccccc4Cl)C3)ccc2o1 (stereo not given)
→ 14 | 2
Cc1cc(C(=O)N/N=C\c2ccc(Cl)cc2)n[nH]1
→ 3 | -3
COc1ccc(CN(CC(O)COCc2ccco2)CC2CCCO2)cc1OC (stereo not given)
→ -4 | 1
COc1cccc(Cn2ccnc2CN(Cc2ccco2)C(=O)NC(C)(C)C)c1
→ 2 | 6
CCOc1ccccc1N1CCN(C(=O)c2cc(-c3ccccc3F)nc3cc(C(C)(C)C)nn23)CC1
→ 11 | 9
CCOC(=O)CNC(=O)N1CCN(c2cc(Oc3ccc(F)cc3F)ncn2)CC1C (stereo not given)
→ -14 | -3
CCOC(=O)N1CCN(/C=C(\C#N)S(=O)(=O)c2ccc(C)c(C)c2)CC1
→ -4 | -6
COCCNC(=O)c1cc(-c2ccc(OC)cc2)nc2cc(C(C)(C)C)nn12
→ 3 | 12
Fc1ccc(/C=C/CN2CCCC(Nc3ccccc3)C2)cc1 (stereo not given)
→ -1 | -2
Cc1cc(C(=O)N(CC2CCCO2)c2nc3c(C(C)C)cccc3s2)on1 (stereo not given)
→ -2 | 6
Cc1ccccc1OCC(=O)N=Nc1c(O)[nH]c2ccc(Br)cc12
→ -3 | -6
O=S(=O)(NCc1ccccc1)N1CCCC(Cc2nc3ccccc3[nH]2)C1 (stereo not given)
→ 7 | 2
Cc1nn(-c2ccccc2)nc1C(=O)Nc1ccccc1C(=O)NC1CC1
→ 4 | 1
CC(C(=O)Nc1ccc(F)c(F)c1F)N(C)CCOc1ccccc1 (stereo not given)
→ -3 | -3
CCC(C)n1c(=S)[nH]c2cc(C)[nH]c2c1=O (stereo not given)
→ -1 | -7
Cc1cc(C(=O)Nc2ccc(C(C)(C)C)cc2)no1
→ 0 | -3
CS(=O)(=O)N1CCCC(C(=O)NCC2CCCO2)C1 (stereo not given)
→ 26 | 13
CCCC1COCCN1Cc1ncc[nH]1 (stereo not given)
→ 3 | -1
COCCCN(CC(=O)N(CCc1c[nH]c2ccccc12)Cc1ccc(F)cc1)C(=O)c1ccc([N+](=O)[O-])cc1Cl
→ 18 | 29
C=CCNC(=O)Cn1c(CO)cnc1SCc1ccc(C(F)(F)F)cc1
→ 8 | 2
Cc1cc(C)c(Cn2cncn2)cc1CN1CCC2(CC1)CNC(=O)C2
→ 29 | 18
O=C(CCCc1ccccc1)N1CC(c2ccncc2)C1
→ -3 | 9
COCCn1c(=NC(=O)c2ccc(S(C)(=O)=O)cc2)sc2cc(F)cc(F)c21
→ 8 | 6
COCCn1c(Sc2ccccc2)nc2c1c(=O)[nH]c(=O)n2C
→ -1 | -1
O=C(Nc1ccc(CNC(=O)C2CC3C=CC2C3)cc1)c1ccncc1 (stereo not given)
→ 1 | 4
CC1C(=O)NCCN1C(=O)CCCS(=O)(=O)c1ccccc1 (stereo not given)
→ -7 | -6
Cn1cc(C(=O)OC2CCN(CC(F)(F)F)CC2)cn1
→ -1 | -2
CCOc1ccc(C2CC(c3cccc(OC)c3)=NN2C(=O)CN2CCOCC2)cc1 (stereo not given)
→ 2 | 7
C=CCO[C@@H]1CCN2C(=O)[C@H]3CNCCN3C(=O)[C@H]12
→ -12 | -16
O=C1NC(=S)NC(=O)C1=Cc1ccc(-c2ccc3c(c2)C(=O)NC3=O)o1
→ -10 | -16
O=C1C=C/C(=N/Oc2ccc([N+](=O)[O-])cc2[N+](=O)[O-])c2cccnc21
→ -3 | -5
Cc1ccc(NC(=O)N2CCN(c3nc(-c4cccc(C(F)(F)F)c4)nc(C)c3C)CC2)cc1
→ 11 | 11
